# DUX4 txn inh – inhibitors of DUX4-driven ZSCAN4 reporter expression, primary screen, 293T cells, Gaussia and Italica luciferase; 293T-iDUX4 ZSCAN4-Gaussia luciferase reporter, 24 h; hits give low values; activity change, negative = inhibition, % (concentration not given with the values); 37,000 tested, 0.8% active;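 active = -10% or lower and over 25 points stronger than a control reporter; inconclusive = -10% or lower with a smaller gap; inactive = above -10%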;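 also: 0% = median of neutral control wells and -100% = median of positive control wells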
# DUX4 txn inh difference – further read-out of DUX4 txn inh, marked with its call; Gaussia minus Italica difference, %; measured here: selective DUX4 reporter inhibition;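 worked out from the two reporters; negative = selective loss of the DUX4 reporter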
# DUX4 txn inh control – also measured in DUX4 txn inh; calls as there; activity change, negative = inhibition, %; measured here: Italica tet-on control reporter;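 0 = neutral control and -100 = positive control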
# * marks the source's active call; other numbers are inactive results; ? = inconclusive; . = no result given. These rows are one share of the data. The share of hits here may be higher or lower than overall.
item	Molecule	DUX4 txn inh	DUX4 txn inh difference	DUX4 txn inh control
1	COC(=O)C[C@H]1C[C@H]2c3cc(NC(=O)CN(C)C)ccc3O[C@H]2[C@H](CO)O1	4	3	1.4
2	COCC(=O)N(C[C@@H]1[C@@H](c2ccccc2)[C@@H](CO)N1C(=O)NC(C)C)C(C)C	-1	-3	2.3
3	CCCC#Cc1ccc2c(c1)O[C@H](CN(C)Cc1ccccn1)[C@H](C)CN([C@H](C)CO)S2(=O)=O	7	5	1.7
4	CCCN1[C@H](C(=O)NCCCN2CCOCC2)[C@@H](CO)[C@@H]2Cn3c(ccc(-c4cccnc4)c3=O)[C@@H]21	3	-1	4.2
5	CNC[C@H]1OCCCC[C@@H](C)Oc2ccc(NC(=O)Nc3ccc(OC)cc3)cc2C(=O)N([C@@H](C)CO)C[C@H]1C	-4	-5	1.1
6	O=C(C[C@@H]1C[C@H]2c3cc(NC(=O)NC4CCCC4)ccc3O[C@H]2[C@@H](CO)O1)NCc1ccncc1	5	1	4.1
7	CO[C@H]1CC[C@@H]2CCN(C)C(=O)[C@H](C)[C@H](OC)CN(C)C(=O)c3cc(C#N)ccc3OC[C@H]1O2	1	3	-2.1
8	COc1ccc(NC(=O)N2CCCCN3[C@H](CO)[C@@H](c4ccc(C#Cc5ccccn5)cc4)[C@@H]3C2)cc1	-9	-8	-1.5
9	COc1cccc(-c2ccc([C@@H]3[C@@H](CO)N4CCCCN(C(=O)c5ccc6c(c5)OCO6)C[C@H]34)cc2)c1	?	.	.
10	CN(C)CC(=O)N1[C@@H](CO)[C@H](c2ccccc2)C12CN(C(=O)c1cccc(F)c1)C2	8	8	0.4
11	O=C(C[C@@H]1CC[C@H]2[C@@H](COC[C@H](O)CN2C(=O)Nc2ccccc2)O1)NCc1ccncn1	13	6	6.5
12	C[C@H](CO)N1C[C@H](C)[C@H](CN(C)C(=O)CCCN(C)C)OCCCC[C@H](C)Oc2ccc(NS(=O)(=O)c3ccc(Cl)cc3)cc2C1=O	-1	-1	0.6
13	C/C=C/c1ccc([C@H]2[C@@H](CO)N(C(=O)C3CC3)[C@H]2CNC(=O)NC(C)C)cc1	0	0	0.8
14	CCC(=O)Nc1ccc2c(c1)C(=O)N(C)C[C@@H](OC)[C@@H](C)CN(Cc1nccs1)[C@H](C)CO2	0	-1	0.5
15	COc1ccc(S(=O)(=O)Nc2ccc3c(c2)C(=O)N([C@H](C)CO)C[C@H](C)[C@H](CN(C)Cc2ccncc2)O3)cc1	3	5	-1.7
16	CCCNC(=O)N1CCC2(CC1)CN(C(=O)CC)[C@H](CO)c1c2c2ccc(OC)cc2n1C	21	27	-6.1
17	N#C[C@@H]1[C@H](c2ccc(-c3ccccc3F)cc2)[C@@H](CO)N1C(=O)C1CCC1	-1	-3	1.8
18	Cc1cccc(CN(C)C[C@@H]2OCc3cnnn3CCCC(=O)N([C@H](C)CO)C[C@H]2C)c1	-1	-2	0.9
19	CO[C@H]1CN(C)C(=O)c2cc(C#N)ccc2OC[C@H]2O[C@H](CC[C@@H]2OC)CCN(C)C(=O)[C@H]1C	5	6	-1.2
20	COc1cccc(NC(=O)N(C)C[C@H]2Oc3cc(C#Cc4ccncc4)ccc3S(=O)(=O)N([C@@H](C)CO)C[C@H]2C)c1	2	3	-1.8
21	COc1ccccc1-c1ccc([C@H]2[C@@H](C#N)N(C(=O)C3CC3)[C@@H]2CO)cc1	-4	-12	7.3
22	Cc1ccccc1S(=O)(=O)N1C[C@@H](O)COC[C@@H]2O[C@H](CC(=O)O)CC[C@H]21	14	13	0.7
23	CNC[C@@H]1OCCCC[C@@H](C)Oc2ccc(NC(=O)Nc3c(C)noc3C)cc2C(=O)N([C@@H](C)CO)C[C@H]1C	-2	-3	1.5
24	O=C(C1CCOCC1)N1CC[C@@H]2[C@H]1c1cc(Br)ccc1N[C@@H]2CO	2	-5	7.2
25	C[C@@H]1CN([C@@H](C)CO)C(=O)CCCn2cc(nn2)CO[C@@H]1CN(C)C(=O)C1CC1	-5	-9	4.5

# Among those listed so far, four have a halogen.
item	Molecule	DUX4 txn inh	DUX4 txn inh difference	DUX4 txn inh control
10	CN(C)CC(=O)N1[C@@H](CO)[C@H](c2ccccc2)C12CN(C(=O)c1cccc(F)c1)C2	8	8	0.4
12	C[C@H](CO)N1C[C@H](C)[C@H](CN(C)C(=O)CCCN(C)C)OCCCC[C@H](C)Oc2ccc(NS(=O)(=O)c3ccc(Cl)cc3)cc2C1=O	-1	-1	0.6
17	N#C[C@@H]1[C@H](c2ccc(-c3ccccc3F)cc2)[C@@H](CO)N1C(=O)C1CCC1	-1	-3	1.8
24	O=C(C1CCOCC1)N1CC[C@@H]2[C@H]1c1cc(Br)ccc1N[C@@H]2CO	2	-5	7.2

# Rewritten as labelled records: entries from further up.
10. CN(C)CC(=O)N1[C@@H](CO)[C@H](c2ccccc2)C12CN(C(=O)c1cccc(F)c1)C2
  DUX4 txn inh: 8
  DUX4 txn inh difference: 8
  DUX4 txn inh control: 0.4
11. O=C(C[C@@H]1CC[C@H]2[C@@H](COC[C@H](O)CN2C(=O)Nc2ccccc2)O1)NCc1ccncn1
  DUX4 txn inh: 13
  DUX4 txn inh difference: 6
  DUX4 txn inh control: 6.5
4. CCCN1[C@H](C(=O)NCCCN2CCOCC2)[C@@H](CO)[C@@H]2Cn3c(ccc(-c4cccnc4)c3=O)[C@@H]21
  DUX4 txn inh: 3
  DUX4 txn inh difference: -1
  DUX4 txn inh control: 4.2

# Carrying on.
item	Molecule	DUX4 txn inh	DUX4 txn inh difference	DUX4 txn inh control
26	C[C@H]1CN([C@@H](C)CO)C(=O)CCCn2nncc2CO[C@@H]1CN(C)Cc1ccncc1	4	5	-1.1
27	C[C@H]1CN([C@@H](C)CO)C(=O)c2cc(C#CC3(O)CCCC3)cnc2O[C@H]1CN(C)C(=O)Nc1ccc2c(c1)OCO2	0	-2	1.7
28	O=C(C[C@H]1CC[C@H]2[C@@H](COC[C@@H](O)CN2C(=O)c2ccc3c(c2)OCO3)O1)NC1Cc2ccccc2C1	3	3	-0.4
29	CC=Cc1ccc2n(c1=O)C[C@H]1[C@H](CO)[C@@H](C(=O)NCCCN(C)C)[C@@H]2N1C(=O)c1ccccc1 (mixture of isomers)	8	8	0.6
30	C[C@H](O)C#Cc1ccc2c(c1)O[C@H](CN(C)Cc1ccc(-c3ccccc3)cc1)[C@@H](C)CN([C@H](C)CO)S2(=O)=O	-1	-3	1.6
31	CCCNC(=O)[C@H]1[C@H](CO)[C@H]2Cn3c(ccc(-c4ccncc4)c3=O)[C@@H]1N2Cc1ccccc1F	-5	-24	19
32	O=C(C[C@H]1CC[C@@H]2[C@H](COC[C@@H](O)CN2S(=O)(=O)c2ccc(F)cc2)O1)NCc1ccc(Cl)c(Cl)c1	-7	-8	0.7
33	CN(C)CC(=O)N1[C@@H]2Cn3c(ccc(-c4ccccc4)c3=O)[C@H]1[C@@H](C(=O)N1CCN(C)CC1)[C@@H]2CO	4	-3	7.2
34	O=C(CC1CC1)N1CC[C@H]2[C@H](CO)Nc3ccc(-c4ccccc4)cc3[C@H]21	1	10	-8.4
35	CO[C@H]1CN(C)C(=O)c2cc(NC(=O)C3CCCC3)ccc2OC[C@@H](C)N(C(=O)CC2CC2)C[C@@H]1C	-2	-1	-1.5
36	C[C@H](O)C#Cc1ccc([C@@H]2[C@@H](CO)N3CCCCN(C(=O)c4ccc5c(c4)OCO5)C[C@H]23)cc1	2	5	-2.9
37	CN(C)c1ccc2c(c1)[C@@H]1C[C@H](CC(=O)NCc3cccc(F)c3)O[C@H](CO)[C@@H]1O2	4	11	-7.1
38	O=C(CN1CCOCC1)N1CCCCN2[C@@H](CO)[C@H](c3ccc(-c4ccccc4F)cc3)[C@@H]2C1	18	6	12
39	Cc1noc(C)c1NC(=O)N(C)C[C@H]1OCCCC[C@H](C)Oc2ccc(N(C)C)cc2C(=O)N([C@H](C)CO)C[C@@H]1C	-5	-5	-0.6
40	N#C[C@H]1[C@H](c2ccccc2)[C@H](CO)N1C(=O)c1ccccc1F	-1	1	-2.4
41	COc1ccc2c3c(n(C)c2c1)[C@H](CO)N(C(=O)c1cccc(F)c1)CC31CCN(CC2CC2)CC1	10	19	-8.2
42	CCCN1[C@@H]2Cn3c(ccc(C4=CCCC4)c3=O)[C@H]1[C@@H](C(=O)N(C)C)[C@@H]2CO	-9	-4	-4.8
43	Cc1ccc(S(=O)(=O)NCC[C@@H]2CC[C@@H](NC(=O)c3cccnc3)[C@@H](CO)O2)cc1	0	-2	1.8
44	CN1C(=O)c2cc(NC(=O)C3CCCC3)ccc2OC[C@@H]2O[C@H](CC(=O)NCC(F)(F)F)CC[C@@H]21	0	-2	1.8
45	C[C@@H]1CN([C@H](C)CO)C(=O)c2cc(NS(=O)(=O)c3ccc(Cl)cc3)ccc2O[C@@H](C)CCCCO[C@@H]1CN(C)Cc1ccncc1	-5	-7	2.0
46	C[C@@H]1CCCCO[C@@H](CN(C)S(=O)(=O)c2cccs2)[C@@H](C)CN([C@H](C)CO)C(=O)c2cc(NC(=O)c3ccccc3)ccc2O1	2	2	0.4
47	O=C(C[C@@H]1CC[C@@H]2[C@H](COC[C@@H](O)CN2S(=O)(=O)c2ccc(F)cc2)O1)NCCN1CCCCC1	7	11	-3.4
48	CCCN1[C@@H]2c3ccc(-c4cccc(F)c4)c(=O)n3C[C@H]1[C@H](CO)[C@H]2C(=O)N(C)C	1	-4	4.6
49	COc1ccccc1C(=O)N1C[C@@H]2[C@H](c3ccccc31)[C@@H](CO)N2C(=O)Cc1ccccc1	-1	-3	2.5
50	O=C(Nc1ccccc1F)N1CC(=O)N2[C@H](CO)[C@@H](c3ccc(C#CC4CC4)cc3)[C@H]2C1	10	-8	18
51	CCC(=O)Nc1ccc2c(c1)C(=O)N(C)C[C@H](OC)[C@@H](C)CN(CC1CCOCC1)[C@H](C)CO2	-2	-1	-0.7
52	O=C([C@@H]1[C@@H](CO)[C@@H]2Cn3c(cccc3=O)[C@@H]2N1CC1CCCC1)N1CCOCC1	-7	-8	1.4
53	CCC(=O)N1[C@H](CN(CC)C(=O)c2ccccc2)[C@@H](c2ccccc2)[C@@H]1CO	-3	6	-8.6
54	O=C(c1cnccn1)N1CC[C@@H]2[C@H](CO)Nc3ccc(C#Cc4cccnc4)cc3[C@@H]21	-10	-9	-0.4
55	CNC[C@@H]1OCCCC[C@@H](C)Oc2ccc(NC(=O)CCC(F)(F)F)cc2C(=O)N([C@@H](C)CO)C[C@@H]1C	-3	-4	0.8
56	O=C(C[C@@H]1CC[C@H]2[C@@H](COC[C@H](O)CN2CCc2ccccc2)O1)NCc1ccc(F)cc1	-4	2	-5.5
57	COc1ccc(NC(=O)N(C)C[C@@H]2OCc3ccccc3-c3c(n(C)c4ccccc34)C(=O)N([C@@H](C)CO)C[C@@H]2C)c(OC)c1	-2	-2	0.0
58	N#C[C@@H]1[C@H](c2ccccc2)[C@H](CO)N1C(=O)Cc1ccccc1	0	2	-1.2
59	Cc1cc(C(=O)Nc2ccc3c(c2)C(=O)N(C)[C@@H]2CC[C@H](CC(=O)O)O[C@H]2CO3)no1	1	2	-0.9
60	CNC[C@@H]1OCCCC[C@H](C)Oc2ccc(NC(=O)C3CCCCC3)cc2C(=O)N([C@H](C)CO)C[C@@H]1C	-2	-1	-0.9
61	N#C[C@H]1[C@@H](c2ccc(C3=CCCC3)cc2)[C@H](CO)N1C(=O)c1ccccn1	-5	1	-5.9
62	C[C@@H]1CN([C@H](C)CO)C(=O)c2c(c3ccccc3n2C)-c2ccccc2CO[C@H]1CN(C)Cc1cccc2c1OCCCO2	-32*	-36*	4.1*
63	C[C@@H]1CN([C@H](C)CO)C(=O)c2c(c3ccccc3n2C)-c2ccccc2CO[C@H]1CN(C)C(=O)Nc1ccc(-c2ccccc2)cc1	-2	-1	-1.6
64	O=C(c1ccccc1F)N1CC[C@H]2[C@H](CO)Nc3ccc(C#Cc4ccc(F)cc4)cc3[C@H]21	-6	-22	16
65	CCCNC(=O)N1CC2(CCN(Cc3ccc(F)cc3)CC2)c2c([nH]c3cc(OC)ccc23)[C@H]1CO	?	.	.
66	COc1ccc(-c2ccc([C@H]3[C@@H](C#N)N(C(=O)C4CCC4)[C@@H]3CO)cc2)cc1	-1	-3	1.9
67	COc1ccc(CN2C[C@H](O)COC[C@@H]3O[C@H](CC(=O)N(C)C)CC[C@H]32)cc1	4	5	-1.2
68	CO[C@@H](C(=O)N(C)C[C@@H]1OCc2ccccc2-c2ccccc2C(=O)N([C@H](C)CO)C[C@@H]1C)c1ccccc1	-7	-10	2.6
69	COc1ccc2c3c(n(C)c2c1)[C@H](CO)N(C(=O)c1ccccc1)CC31CCN(C(=O)c2ccccc2)CC1	?	.	.
70	CCN(C[C@@H]1N[C@H](CO)[C@H]1c1ccc(C2=CCCC2)cc1)C(=O)c1ccncc1	-7	-3	-3.2
71	O=C(c1ccccn1)N1CC[C@@H]2[C@H](CO)Nc3ccc(C#Cc4cccnc4)cc3[C@@H]21	?	.	.
72	COC(=O)c1ccc(CN2CC(=O)N3[C@H](CO)[C@H](c4ccc(Br)cc4)[C@@H]3C2)cc1	3	-3	6.5
73	CNC(=O)C[C@@H]1CC[C@@H]2[C@H](COC[C@H](O)CN2C(=O)Nc2ccc(Cl)c(Cl)c2)O1	-5	-5	-0.1
74	COc1ccc2c3c([nH]c2c1)[C@@H](CO)N(C(=O)NC(C)C)CC31CCN(C(=O)c2ccccn2)CC1	17	5	12
75	C[C@H]1CN([C@@H](C)CO)C(=O)c2c(c3ccccc3n2C)-c2ccccc2CO[C@H]1CN(C)S(=O)(=O)c1ccc([N+](=O)[O-])cc1	?	.	.
76	CO[C@@H]1CN(C)C(=O)c2cc(NC(=O)C3CCCCC3)ccc2OC[C@@H](C)N(C)C[C@H]1C	-3	0	-2.6
77	CO[C@H]1CN(C)C(=O)c2ccc(NC(=O)Nc3ccccc3F)cc2OC[C@H](C)N(Cc2ccccc2C(=O)O)C[C@@H]1C	-2	-5	3.6
